Screening data from PubChem.
Rango complex inh – prevents formation of the Rango-importin beta complex | Potency, µM (series often up to 92.2 µM), for the others: at the highest dose inhibition of complex formation | Rango CFP/YFP FRET sensor + importin beta, 45 min | hit rate 0.031% among 340,000 | Q14974; active = rising FRET ratio curve, often small or poorly fitted; inconclusive = mostly compound fluorescence or quenching in the first reads; inactive = flat curves in all reads;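 further: potency means the concentration at half of the fitted maximal effect; 0% = DMSO wells and 100% = buffer wells lacking importin beta; nearly all actives have a fitted effect of over 15% in size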
Target sequence (Q14974 whole entry, looked up): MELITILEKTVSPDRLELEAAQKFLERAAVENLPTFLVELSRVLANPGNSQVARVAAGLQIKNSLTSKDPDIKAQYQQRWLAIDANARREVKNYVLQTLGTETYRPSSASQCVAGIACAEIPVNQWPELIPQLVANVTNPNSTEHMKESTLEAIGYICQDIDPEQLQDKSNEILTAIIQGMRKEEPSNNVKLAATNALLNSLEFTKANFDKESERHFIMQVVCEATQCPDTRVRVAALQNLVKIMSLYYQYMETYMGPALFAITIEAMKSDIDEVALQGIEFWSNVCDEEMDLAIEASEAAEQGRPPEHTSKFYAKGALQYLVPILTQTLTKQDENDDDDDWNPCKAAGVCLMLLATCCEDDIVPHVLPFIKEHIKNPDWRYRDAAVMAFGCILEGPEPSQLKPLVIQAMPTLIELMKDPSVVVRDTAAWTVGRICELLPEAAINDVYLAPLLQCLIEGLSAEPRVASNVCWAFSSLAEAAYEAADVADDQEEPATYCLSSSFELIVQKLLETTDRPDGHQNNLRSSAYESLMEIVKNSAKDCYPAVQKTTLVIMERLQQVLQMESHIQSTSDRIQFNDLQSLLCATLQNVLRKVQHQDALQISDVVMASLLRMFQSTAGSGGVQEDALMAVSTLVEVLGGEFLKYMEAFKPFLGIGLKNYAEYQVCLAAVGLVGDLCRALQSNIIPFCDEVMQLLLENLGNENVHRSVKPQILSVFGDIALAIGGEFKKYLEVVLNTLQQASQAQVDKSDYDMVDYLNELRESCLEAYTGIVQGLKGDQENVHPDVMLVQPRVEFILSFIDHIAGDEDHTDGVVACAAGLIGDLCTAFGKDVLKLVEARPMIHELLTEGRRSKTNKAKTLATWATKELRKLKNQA
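FRET biosensor (snurportin 1 IBB flanked by EYFP and cerulean), 50 nM, with compound 5 min, then 0.125 microM importin beta in PBS, 1 mM DTT, 0.02% Tween-20, 0.1% BSA. CFP/YFP ratio read after 45 min at room temperature; pre-read flags interference.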
Rango release inh – prevents RanGTP from dissociating the Rango-importin beta complex | O95149+P62826 | Biochemical FRET Rango-importin beta, RanGTP-induced dissociation | Potency, µM (titrated, usually from 46.1 µM), without a hit: at the highest dose activity change, negative = inhibition | hit rate 0.071% among 340,000 | AID 540253; active means falling FRET ratio curve, often poorly fitted, with flat reads before Ran was added; inconclusive means other falling curves, or compound fluorescence or quenching; inactive means flat or rising ratio curve;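 further: potency means the concentration at half of the fitted maximal effect; % of control where 0% means no effect; nearly all actives have a fitted effect of over 45% in size; -100% = wells without RanGTP and RCC1; the record marks most hits as doubtful in a second field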
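Rango (0.1 uM)–importin beta (0.25 uM) complex; RanGTP-RCC1 trigger; 45 min RT; CFP/YFP FRET read.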
GLA inh pH 4.5 – alpha-galactosidase A (human) inhibition, pH 4.5; P06280; purified enzyme, 4-MU-alpha-Gal fluorescence, pH 4.5; activity change, negative = inhibition, % at 105 µM; 230,000 tested, under 10 active; AID 1467; inconclusive = small, poorly fitted or top-dose-only inhibition, or a rising curve; inactive = flat fitted curve, though single readings scatter; no compound was filed as active;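 further: 0% = full activity with enzyme and -100% = basal without enzyme; dose as in the result columns while the protocol names 77 µM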
miR-21 FLuc – raises the signal of a miR-21 reporter. 340,000 tested, under 10 active. Potency, µM (highest dose often 38.3 µM), without a hit: at the top dose reporter change, positive = more light. AID 2288. HeLa miR-21 FLuc reporter, luciferase, 48 h; active = well fitted rising curve with a large enough effect; inconclusive = small, poorly fitted or top-dose-only effect; inactive = no such curve, though single readings can be large or run the other way;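 further: % of control where 0% means no effect; miR-21 action dims this reporter so a rising signal means less miR-21 action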
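HeLa miR-21-FLuc reporter line, endogenous miR-21; 2000 cells/well in DMEM/10% FBS; compound titration up to ~40uM final, 48 h, 37 degree Celsius; luciferase detection reagent, 15 min lysis, CCD luminescence.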
The depositor's hits bear a star; ? = inconclusive; . = not tested or not shown; & = joins results of further samples. Some of the compounds tested; rates above refer to the full screens.

canonical_smiles | miR-21 FLuc | GLA inh pH 4.5 | Rango release inh | Rango complex inh
CC(=NNC(=O)c1cccc(S(=O)(=O)N2CCOCC2)c1)c1ccccc1 | . | . | 0.8% | -1.3%
CC(C)CNc1nc(=S)nc(N(C)C)[nH]1 | -1.1% | ? | -14.4% | -0.6%
COc1cc(-c2nnc(SCC(=O)N3c4ccccc4Sc4ccccc43)o2)cc(OC)c1OC | -1.0% | -4.3 | 2.6% | -0.2%
CCc1nc(N2CCN(CC(=O)NCC3CCCO3)CC2)c(C#N)c2c1COC(C)(C)C2 (stereo not given) | 0.8% | . | 27.7% | -1.4%
C/C=C(\C)CN1CCC(Oc2cccc(C(=O)NCc3ccccn3)c2)CC1 | -3.3% | . | 0.0% | -3.0%
COc1ccc(-n2nnnc2SCC(=O)NC(=O)Nc2ccc3c(c2)OCCO3)cc1 | -30.0% | 0.4 | 0.4% | -0.3%
CCCc1cc(=O)oc2cc(C)cc(OCC(=O)NCCCN3CCOCC3)c12 | 0.3% | . | -9.5% | -1.8%
CC1(C)N([O-])C(c2cccs2)=C[N+]1=O | -7.9% | 2.4 | 12.4% | ?
O=S(=O)(c1ccccc1)N1CCN(CC2CC3C=CC2C3)CC1 (stereo not given) | -0.9% | -1.1 | 7.3% | 0.2%
Cc1cc(=O)oc2cc(OCCCN3C(=O)c4ccccc4C3=O)ccc12 | -5.2% | -3.6 | -5.7% | 6.0%
CCN(CC)CCOc1c(C)cccc1Cl | 0.1% | 3.0 | 1.0% | -0.4%
CC(Sc1nnc2ccccn12)C(=O)Nc1ccc2c(c1)OCO2 (stereo not given) | -7.7% | 1.7 | -4.2% | 0.4%
O=[N+]([O-])c1ccc(NS(=O)(=O)c2ccccc2)c(Cl)c1 | . | . | -8.5% | -1.3%
COc1cc(CC(=O)OCC(=O)NCc2ccco2)cc(OC)c1OC | . | . | -0.6% | -0.5%
O=C(NC1CC2CCCC(C1)N2C(=S)Nc1ccc(Cl)cc1)C1CC1 (stereo not given) | -2.1% | . | 12.8% | 0.7%
Cn1c2c(c(=O)[nH]c1=O)C(c1ccc(O)cc1)C1=C(N2)c2ccccc2C1=O (stereo not given) | 2.0% | . | 2.9% | 5.5%
O=[N+]([O-])c1cccc(CP(=O)(c2ccccc2)c2ccccc2)c1 | . | . | ? | ?
CCOc1ccc(-c2ccc3nnc(SCC(=O)NCC4CCCO4)n3n2)cc1 (stereo not given) | . | . | 7.5% | 0.2%
NCCCC[C@H]1CN=C(N)N1CC1CCCCC1 | . | . | 16.3% | -4.7%
Cc1c(C(=O)Nc2ccc3nc(N4CCOCC4)sc3c2)oc2ccccc12 | . | . | 1.3% | 4.8%
COC(=O)c1onc(C(=O)c2ccccc2)c1C(=O)OC | 0.8% | 1.8 | -0.3% | 3.5%
Cc1ccc(C(=O)NCC(=O)OCC(=O)c2ccc(Br)s2)cc1 | . | . | -0.4% | -5.6%
Fc1ccc(/C=N/N2CCOCC2)c(F)c1 | 0.6% | -29.7 | 12.0% | 5.0%
CCCOc1cccc(C(=O)O)c1 | -1.3% | -2.6 | 0.1% | -0.4%
CCCC(=O)Nc1c2c(nn1-c1ccc(C)cc1)CS(=O)(=O)C2 | -3.6% | . | -2.3% | -0.5%
CCOC(=O)c1ccccc1NC(=O)COC(=O)CN1C(=O)NC2(CCCC2)C1=O | 0.3% | . | 2.8% | 2.6%
COc1ccc(C2C3=C(CC(C)(C)CC3=O)Nc3c2c(=O)[nH]c2nc(C)nn32)cc1 (stereo not given) | -2.2% | 14.7 | ? | ?
Cn1c(=N)c(S(=O)(=O)c2ccccc2)cc2c(=O)n3ccccc3nc21 | -8.2% | 3.7 | ? | ?
CC(=O)c1ccc(OCC(=O)N2CCN(S(=O)(=O)c3ccc(C)cc3C)CC2)cc1 | 2.5% | . | -11.7% | 1.8%
Cc1c(Cl)ccc(S(=O)(=O)NCCCn2ccnc2)c1Cl | 5.1% | . | 2.1% | -2.2%
COc1ccc(/C(C#N)=C/c2cccnc2)cc1 | -56.2% | 2.9 | . | .
COc1ccc(NC(=O)N(Cc2cccs2)Cc2cc3cc4c(cc3[nH]c2=O)OCO4)cc1 | -0.5% | -7.2 | . | .
Cc1cccc(-n2c(C)nc3cc(C(=O)N4CCOCC4)ccc32)c1 | -21.3% | . | 0.8% | -0.7%
O=C(Nc1ccc2ccccc2c1)c1cc(F)c(F)cc1Cl | -63.4% | . | -16.3% | -2.6%
O=C(CSc1ccc(Cl)cc1)N/N=C/c1cccnc1 | -6.2% | 2.0 | -19.3% | -0.7%
CC(=O)N1CCN(C(=O)CCc2nnc(CCCCc3ccccc3)o2)CC1 | 4.0% | -1.1 | 5.0% | 0.9%
CCC(C)(C)n1nnnc1C(c1ccc2ncccc2c1)N1CCN(Cc2ccc3c(c2)OCO3)CC1 (stereo not given) | -6.2% | -3.7 | 5.8% | 0.6%
COc1ccc(OC(C)C(=O)Nc2ccc(F)cc2F)cc1 (stereo not given) | -0.1% | 1.8 | -13.5% | -2.0%
O=S(=O)(Nc1ccc(-c2csc(-c3ccccc3)n2)cc1)c1ccc(F)cc1 | -7.6% | -13.2 | 1.9% | 1.0%
CCOc1ccc(NC(=O)CSC2=C(C#N)C(c3ccc4c(c3)OCO4)CC(=O)N2)cc1 (stereo not given) | -0.7% | -15.3 | 1.9% | -0.9%
N#CCC1c2ccccc2CCN1C(=O)Nc1cccc(C(F)(F)F)c1 (stereo not given) | 3.2% | -8.8 | 1.1% | -1.0%
CC(C)(C)NS(=O)(=O)c1ccc(CCC(=O)NCc2ccc3c(c2)OCO3)cc1 | -5.5% | 1.7 | 0.9% | -0.6%
COc1ccc(-c2nc3ccccc3c(=O)[nH]2)cc1 | -46.2% | . | -11.0% | -3.8%
CC(=O)Nc1ccc(Nc2ncc([N+](=O)[O-])c(Nc3ccc(NC(C)=O)cc3)n2)cc1 | -2.5% | -6.6 | -3.1% | 0.0%
Cc1cc(C)n(CC(=O)NNC(=O)CC(C)c2ccccc2)n1 (stereo not given) | . | . | -0.1% | -0.2%
COc1ccc(-c2nnc(SCC(=O)NC(C)C)n2CC2CCCO2)cc1OC (stereo not given) | 0.6% | 7.0 | 1.2% | -4.2%
CCCc1nc(SCC(=O)N2CCCC2)c2c(=O)n(C)c(=O)n(C)c2n1 | 6.7% | . | -2.8% | -1.6%
O=S(=O)(N1CCOCC1)n1c(Cc2ccccc2)nc2ccccc21 | -9.7% | -4.6 | -13.2% | -3.5%
COC(=O)c1ccc(CN2CCC(Oc3ccc(C(=O)N4CCCCC4)cc3)CC2)cc1 | . | . | -0.7% | 0.0%
CC(=C\C(=O)O)/C(=C/c1ccccc1)C(=O)O | -5.4% | 11.8 | 0.1% | 0.6%
CN(C)c1ccnc2c[cH-]cc12.[Fe].c1ccc(-[c-]2[c-](-c3ccccc3)[c-](-c3ccccc3)[c-](-c3ccccc3)[c-]2-c2ccccc2)cc1 (stereo not given) | 0.4%&-1.3% | -6.9&-19.6 | 3.9%&9.4% | -0.2%&0.0%
CCOC(=O)CN1NC2(CCCC(C)C2)NC1=S (stereo not given) | -0.8% | 3.7 | 18.2% | -0.3%
COc1cc(NC(=S)Nc2cccnc2)cc(OC)c1OC | 3.0% | 1.2 | 6.6% | ?
Cc1ccc(S(=O)(=O)N(C)C)cc1NC(=S)NC(=O)C12CC3CC(CC(C3)C1)C2 | -5.6% | -17.3 | ? | 2.7%
Cc1cccc(NC(=S)NCCSc2ccc(Cl)cc2)c1 | -1.0% | -8.6 | 7.6% | -0.7%
CCN(CC)CCn1c2c(c(SCC(=O)Nc3ccc(C)c(F)c3)nc1=O)CCCC2 | . | . | -14.1% | -1.3%
CC(C)[C@H](CO)N(Cc1cccc(F)c1)c1nc(Nc2cccc(Cl)c2)c2ncn(C(C)C)c2n1 | 19.3% | -4.7 | -12.2% | -0.9%
COc1ccc(Cl)cc1NC(=S)NCc1ccc(S(N)(=O)=O)cc1 | -4.5% | 1.4 | -13.1% | -0.9%
COc1cc(-n2c(C)nc3cc(C(=O)NCCN4CCOCC4)ccc32)cc(OC)c1OC | -15.7% | -3.0 | . | .
O=C(Nc1ncc(Cc2ccc(Cl)cc2Cl)s1)c1ccc([N+](=O)[O-])cc1 | -5.6% | 1.6 | -13.6% | 3.0%

Continued.
canonical_smiles | miR-21 FLuc | GLA inh pH 4.5 | Rango release inh | Rango complex inh
COc1ccc(NC(=O)/C(=C\c2ccccc2)NC(=O)c2ccco2)cc1 | -1.2% | . | 0.2% | -1.6%
O=C(O)c1ccccc1NCc1ccncc1 | -0.8% | -3.7 | -7.1% | -0.5%
COc1cccc(CNC(=O)CCCn2nc(C)c3c(C)n(-c4ccc(C)cc4)nc3c2=O)c1OC | 0.6%&4.5% | . | -9.8% | 3.1%
O=C(N/C(=C/c1ccc(Br)cc1)C(=O)N1CCCCC1)c1ccccc1F | -6.6% | . | 25.5% | 3.1%
Cn1cccc1C1(C(F)(F)F)NCCNC1=O (stereo not given) | -2.8% | -0.1 | -5.2% | 1.8%
Cc1ccc(NC(=O)/C(=C/c2cccc(Br)c2)NC(=O)c2ccco2)cc1 | -3.9% | -0.8 | 1.3% | -1.0%
CCOC(=O)N1CCN(C(=O)CCc2ccc(S(=O)(=O)NC(C)C)cc2)CC1 | -0.8% | . | 16.9% | -0.3%
CC(=O)c1cccc(NC(=O)N2CCCC2C(=O)NCc2ccc(F)cc2)c1 (stereo not given) | 0.9% | 8.6 | 1.3% | -2.8%
CC(C)N1CCC(=NNc2ccc([N+](=O)[O-])cc2S(=O)(=O)N2CCOCC2)CC1 | -1.4% | -1.7 | -6.1% | 4.3%
COc1ccccc1C1/C(=C(/O)c2cnn(-c3ccccc3)c2C)C(=O)C(=O)N1CCN(C)C (stereo not given) | . | . | -9.6% | 6.1%
Cc1ccccc1S(=O)(=O)/N=C(/Nc1nc2ccccc2s1)c1ccccc1 | . | . | -10.3% | -1.4%
Cc1ccc2oc(-c3cccc(NC(=O)/C=C/c4cccc([N+](=O)[O-])c4)c3C)nc2c1 | -53.7% | 4.0 | -19.9% | -2.3%
Cc1cc(C)cc(Nc2ncnc3nc[nH]c23)c1 | -36.1% | -0.9 | -21.9% | -3.0%
Cc1n[nH]c(=S)c2nn(-c3cccc(Cl)c3)c(C)c12 | -8.2% | 1.9 | . | .
CCOc1ccc(C(=O)Nc2cc(C)on2)cc1OCC | -13.9% | -6.7 | 13.4% | 4.8%
O=C(NCCN1CCN(c2ccccc2Cl)CC1)Nc1ccccc1 | 0.4% | . | -5.8% | 5.3%
Oc1ccc(C[C@@H]2CNC(=S)N2CCCCC2CCCCC2)cc1 | 14.2% | -5.3 | 20.7% | 1.0%
CC(Oc1ccccc1F)C(=O)NNC(=O)Cc1ccc(S(=O)(=O)N2CCOCC2)s1 (stereo not given) | . | . | 29.4% | -2.3%
Cc1nc2c(c(=O)c3ccccc3n2C)c(=O)n1C1CCCCCC1 | -10.9% | -3.9 | 11.2% | 1.3%
CCOC(=O)C1CCCN(C(=O)c2ccc(C)cc2O)C1 (stereo not given) | -8.3% | -0.6 | -14.4% | 3.4%
